# Source: PubChem BioAssay (several laboratories)
# HNF4A DNA FP: change in binding of human HNF4 alpha to DNA | HNF4a-FITC DNA binding, fluorescence polarization, 1 h | activity change, % at 10 µM | 360,000 compounds, 0.3% hits | AID 1224865; in the data active = activity change above about 30%, passing the limit was not always enough;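 note: controls were the assay level and a saturating level of protein; the project sought stronger binding though the title names inhibitors; some compounds called inactive have numbers as strong as hits; positive values seem to mean higher polarization but the record does not say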
# E coli growth: E. coli growth inhibition | OD600 absorbance (no concentration beside the values) | 330,000 compounds, 0.21% hits | Escherichia coli growth, OD600, 23 h; stronger effect = lower value;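 active = OD600 absorbance below the run mean of sample wells minus 3.6 SD, in any replicate, cut at about 0.56 in these data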;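 note: stock transfer was 300 nL into about 60 µL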
# ALR inh: blocks human ALR sulfhydryl oxidase activity. AID 485317. 290,000 compounds, 3.8% hits. inhibition, % (test concentration not listed). purified ALR, DTT oxidation, H2O2 HRP-luminol luminescence. P55789;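 active = mean and each replicate at 75% or more; inconclusive = only one of the two met; inactive = neither met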;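 note: stock transfer was 7.5 nL into about 7.5 µL; 0% = neutral wells and 100% = wells with inactivated enzyme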
# Target sequence (P55789 whole entry, looked up): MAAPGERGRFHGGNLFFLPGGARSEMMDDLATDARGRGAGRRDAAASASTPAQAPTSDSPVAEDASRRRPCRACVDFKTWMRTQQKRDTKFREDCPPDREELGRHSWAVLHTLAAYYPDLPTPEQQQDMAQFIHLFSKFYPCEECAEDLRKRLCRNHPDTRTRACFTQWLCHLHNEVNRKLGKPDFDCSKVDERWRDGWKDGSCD
# Vif A3G: inhibitors of Vif binding to APOBEC3G peptide, primary screen, biochemical, TR-FRET, GST-Vif 1-94, biotin-A3G peptide, dose response retest (AID 1117319). TR-FRET GST-Vif / biotin-A3G peptide binding; higher % means a stronger effect; test concentration not given here; strong numbers were not always called active. inhibition, %; hits with a dose series show IC50 in µM. 260,000 compounds, 0.57% hits;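 active = above the screen mean plus three standard deviations and confirmed in dose response; inconclusive = results disagree or hit not tested in dose response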;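 note: Vif residues 1-94 fused to GST binding biotinylated APOBEC3G peptide 110-148; 0% = full assay without inhibitor and 100% = GST in place of GST-Vif; retest series ran down from 100 µM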
# FGF22 binding: shifts melting point of recombinant human FGF22. 340,000 compounds, 1.5% hits. recombinant FGF22 thermal shift, SYPRO orange fluorescence; percent of sucrose octasulfate shift, DMSO zero. calls only at 9.99 µM. Q9HCT0;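 active = melting point raised past a set limit in the mean and every replicate; inconclusive = no clear call; three in four hits are not shown here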
# Target sequence (Q9HCT0 whole entry, looked up): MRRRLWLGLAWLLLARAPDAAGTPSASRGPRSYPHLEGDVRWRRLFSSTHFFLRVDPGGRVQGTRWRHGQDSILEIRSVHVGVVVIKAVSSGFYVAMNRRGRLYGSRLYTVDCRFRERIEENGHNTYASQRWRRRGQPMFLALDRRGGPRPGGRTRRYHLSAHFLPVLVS
# MLL AF4-AF9 inh: blocks AF4 peptide binding to human AF9 | 350,000 compounds, 0.47% hits | AlphaScreen, biotin-AF4 peptide binding to FLAG-AF9 | inhibition, % at 10 µM | AID 651704 | P42568;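 active = every replicate reaching a set inhibition limit, whatever the replicate mean, cut at about 25% in these data; inconclusive = mean inhibition reaches that limit but some replicates miss it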;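 note: 0% = plate neutral control median and 100% = total signal loss; the record names both 10 and 1 µM as test concentration; the first replicate is given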
# Target sequence (P42568 whole entry, looked up): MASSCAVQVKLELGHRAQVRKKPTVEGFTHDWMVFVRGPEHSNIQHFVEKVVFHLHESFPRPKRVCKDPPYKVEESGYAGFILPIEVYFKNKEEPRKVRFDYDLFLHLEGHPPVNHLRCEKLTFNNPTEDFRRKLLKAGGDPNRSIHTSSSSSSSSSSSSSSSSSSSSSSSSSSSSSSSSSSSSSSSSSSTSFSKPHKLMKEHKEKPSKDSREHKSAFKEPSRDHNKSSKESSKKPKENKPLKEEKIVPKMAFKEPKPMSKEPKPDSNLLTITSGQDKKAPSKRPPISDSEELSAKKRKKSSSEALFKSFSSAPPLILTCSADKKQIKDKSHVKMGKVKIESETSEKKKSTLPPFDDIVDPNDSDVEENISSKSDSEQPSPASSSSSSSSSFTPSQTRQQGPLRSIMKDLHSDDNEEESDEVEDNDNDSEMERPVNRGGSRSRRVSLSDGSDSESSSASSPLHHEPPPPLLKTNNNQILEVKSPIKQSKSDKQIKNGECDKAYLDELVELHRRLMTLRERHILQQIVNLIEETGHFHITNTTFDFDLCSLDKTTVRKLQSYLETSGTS
# Ecoli rRNA inh: inhibits bacterial ribosomal RNA function over humanized ribosomes; E. coli WT GFP vs humanized-ribosome RFP mutants, fluorescence, 24 h; stronger effect = lower value; DMSO median 0, no signal -100; GFP signal change (wild-type ribosome), % (concentration not given with the values); 350,000 compounds, 1.6% hits; AID 720706;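 active = significant combined selectivity score with lowered wild-type GFP, culture density cut under 30%, mutant RFP and density less affected; inactive = any of these conditions unmet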; note: one replicate is shown; some compounds called inactive have numbers as strong as hits
# Ecoli rRNA inh OD600: further read-out of Ecoli rRNA inh, marked with its call; OD600 change, %; measured here: OD600 growth;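 optical density of the mix in the first replicate; 0 = DMSO median and -100 = no signal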
# Ecoli rRNA inh RFP: recorded beside Ecoli rRNA inh, whose call it bears; RFP signal change, %; measured here: RFP humanized mutant strains;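 first replicate; 0 = DMSO median and -100 = no signal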
# An asterisk follows results filed as active; i = inactive; ? = inconclusive; . = not tested or not shown; & = joins results of further samples. This is a subset; the hit share may differ from the screen's.
# A first look, 2 compounds:
compound	HNF4A DNA FP	E coli growth	ALR inh	Vif A3G	FGF22 binding	MLL AF4-AF9 inh	Ecoli rRNA inh	Ecoli rRNA inh OD600	Ecoli rRNA inh RFP
O=C(O)CCC(NC(=O)c1ccc(Cl)cc1)C(=O)O (centres undefined)	-1.5	0.66	-4	1%	i	0.0	10	11	-1.8
COc1ccc(CCNS(=O)(=O)c2cccc(F)c2)cc1OC	-3.2	0.64	0	-1%	.	.	.	.	.

# The listing (from the top)
compound	HNF4A DNA FP	E coli growth	ALR inh	Vif A3G	FGF22 binding	MLL AF4-AF9 inh	Ecoli rRNA inh	Ecoli rRNA inh OD600	Ecoli rRNA inh RFP
O=C(O)CCC(NC(=O)c1ccc(Cl)cc1)C(=O)O (centres undefined)	-1.5	0.66	-4	1%	i	0.0	10	11	-1.8
COc1ccc(CCNS(=O)(=O)c2cccc(F)c2)cc1OC	-3.2	0.64	0	-1%	.	.	.	.	.
O=C(c1ccc(Cl)s1)N1CCN(c2nc3ccccc3s2)CC1	4.2	0.76	-4	1%	i	5.9	-4	-5	-4.0
CCNC(=S)/N=C(/Nc1ccccc1)Nc1nc(C)cc(C)n1	1.8	.	.	-2%	i	-5.0	35	-10	36
Nc1cc(=O)[nH]c(SCCNS(=O)(=O)c2ccccc2)n1	-0.2	0.75	-9	-1%	.	.	.	.	.
CO[C@@H]1CN(C)C(=O)c2cc(NC(C)=O)ccc2OC[C@@H](C)N(Cc2ccccc2C(=O)O)C[C@H]1C	.	.	.	.	i	-4.4	0	-6	-1.5
C/C(=N\NC(=O)CN1CCN(S(=O)(=O)c2ccc(C)cc2)CC1)c1ccncc1	-0.3	.	-7	-4%	i	9.5	-3	-5	-1.1
O=C(CN1CCN(S(=O)(=O)c2ccccc2F)CC1)Nc1ccccc1C(=O)c1ccccc1	-2.2	0.65	-2	-1%	i	4.8	-20	-13	-3.1
COc1ccccc1CCC(=O)Oc1ccccc1C#N	3.1	0.7	85*	-2%	i	-0.5	5	9	5.6
CNC(=O)C[C@@H]1CC[C@@H]2[C@H](COC[C@@H](O)CN2C(=O)c2ccc3c(c2)OCO3)O1	.	.	.	.	i	-4.0	3	7	11
Cc1ccc(S(=O)(=O)N(C)C[C@@H]2Oc3c(NS(=O)(=O)c4ccccc4)cccc3C(=O)N([C@H](C)CO)C[C@H]2C)cc1	.	.	.	.	i	-2.9	2	6	-5.6
COc1ccccc1CCNC(=O)CCNS(=O)(=O)c1ccc(NC(C)=O)cc1	7.3	0.65	.	-3%	i	-3.4	2	4	-4.0
CC(C)(C)NC(=O)CSc1nnc(-c2ccccc2)c(-c2ccccc2)n1	-3.3	0.63	9	0%	.	.	.	.	.
O=C(c1ccc2ccccc2c1)N1CCN(S(=O)(=O)/C=C/c2ccccc2)CC1	-4.3	0.67	-4	1%	i	3.3	3	-3	7.0
COc1ccccc1/C=C(/NC(=O)c1ccc(Cl)cc1Cl)C(=O)O	0.8	0.68	-15	-6%	i	-1.2	4	6	2.3
COc1ccc(CN(C)C[C@@H]2OCCCC[C@H](C)Oc3ccc(NC(=O)CCC(F)(F)F)cc3C(=O)N([C@@H](C)CO)C[C@@H]2C)cc1	.	.	.	.	i	-1.7	5	2	-2.6
O=C(NC(=O)C(F)(F)F)Nc1ccc(S(=O)(=O)Nc2nccs2)cc1	2.5	0.67	-12	.	i	-3.1	10	9	0.9
C[C@@H]1CCCCO[C@@H](CN(C)C(=O)CCC(F)(F)F)[C@H](C)CN([C@@H](C)CO)C(=O)c2cc(NS(=O)(=O)c3ccc(Cl)cc3)ccc2O1	.	.	.	.	i	-2.4	0	-7	0.6
C[C@H]1CN([C@@H](C)CO)C(=O)Cc2cc(NC(=O)Cc3ccccc3)ccc2O[C@@H]1CN(C)Cc1ccc(C(F)(F)F)cc1	.	.	.	.	i	-1.6	-1	7	2.6
COc1ccccc1/C=C/CN1CCCC(CCC(=O)NCc2ccccc2F)C1 (centres undefined)	4.6	0.71	-46	.	i	1.5	3	-7	22
Cn1cc(C2=C(c3ccc(Cl)cc3Cl)C(=O)NC2=O)c2ccccc21	72	0.73	-28	.	i	-14	.	.	.
CC(=O)Nc1ccc2c(c1)C(=O)N(C)[C@@H]1CC[C@@H](CC(=O)Nc3cn(C)nc3C)O[C@@H]1CO2	.	.	.	.	i	1.7	-2	-2	-4.5
C[C@@H]1CN([C@H](C)CO)C(=O)Cc2cc(NC(=O)CCN3CCOCC3)ccc2O[C@@H]1CN(C)Cc1ccc2c(c1)OCO2	.	.	.	.	i	3.4	-3	-4	-1.3
CCN1CNC(=S)N(c2ccccc2OC)C1	-2.8	0.62	-4	7%	i	-1.1	7	11	-1.2
Cc1onc(-c2c(Cl)cccc2Cl)c1C(=O)Nc1c(C)n(C)n(-c2ccccc2)c1=O	2.6	0.7	.	-1%	.	.	.	.	.
CCOC(=O)C1CCN(C(=O)c2cc3c(=O)n4cccc(C)c4nc3s2)CC1	3.7	0.67	3	-9%	i	-0.9	-19*	-6.1*	4.9*
Cc1cc(C)c(C)c(OCC(=O)O/N=C(\N)c2ccncc2)c1	2.3	0.65	17	.	i	0.7	5	-2	0.0
O=C1CN(C(=O)COc2ccc(Cl)cc2Cl)c2ccccc2N1	-0.1	0.65	-13	.	i	-1.1	8	12	3.0
Cc1ccccc1Cn1cc(NS(=O)(=O)c2cn(C)nc2C)cn1	0.2	0.72	-27	.	i	-0.8	7	7	-1.8
CCCNC(=O)c1ccccc1NC(=O)c1ccccc1N(C)S(=O)(=O)c1ccc(C)cc1	-0.1	0.76	.	-4%&5%	.	.	.	.	.
COc1ccc(CC(=O)OCC(=O)NCc2ccc(F)cc2)cc1	-2.2	0.62	-1	0%	i	-3.0	8	8	4.2
Oc1cccc(-c2nc3c4c(ncn3n2)-c2ccccc2CC42CCCC2)c1	1.3	0.69	-5	-1%	i	-68	8	20	7.1
C=CCn1c(O)c2ccc(C(=O)N=NC(=O)COc3ccc(OC)cc3)cc2c1O	1.7	0.75	7	.	i	-6.9	6	10	0.9
O=C(/C=C/c1ccc(O)cc1)OCc1occc(=O)c1O[C@@H]1OC(CO)[C@@H](O)[C@H](O)[C@@H]1O (some centres undefined)	-4.4	.	57	20%	i	0.0	-1	5	8.2
CCOC(=O)c1c(NC(=O)CCCC(=O)O)sc2c1CCC2	1.3	.	4	-3%	i	-4.2	0	-12	-3.7
O=C(COC(=O)CCCOc1ccccc1)NC1CCS(=O)(=O)C1 (centres undefined)	-1.3	0.61	.	0%	i	-0.5	10	10	-0.1
CN1CCN(C(=O)CN(C)S(=O)(=O)c2ccc3ccccc3c2)CC1	-4.8	0.64	.	.	i	-1.6	7	5	2.2
CC(=O)c1ccc(OCc2cc(C(=O)N3CCN(c4ccccc4)CC3C)no2)cc1 (centres undefined)	-0.6	0.62	18	.	i	2.1	7	-25	-3.9
CCN1C(=O)[C@@H]2[C@@H](c3ccc(-c4ccc(F)cc4)c(OC)c3)N3CCC[C@@]3(C(=O)OC)[C@@H]2C1=O	-4.7	.	-2	.	i	11	-3	-4	4.3
COc1ccccc1NC(=O)c1ccc(Br)o1	1.7	0.72	7	3%	.	.	.	.	.

# A section of the results above, for reference:
compound	HNF4A DNA FP	E coli growth	ALR inh	Vif A3G	FGF22 binding	MLL AF4-AF9 inh	Ecoli rRNA inh	Ecoli rRNA inh OD600	Ecoli rRNA inh RFP
CCN1C(=O)[C@@H]2[C@@H](c3ccc(-c4ccc(F)cc4)c(OC)c3)N3CCC[C@@]3(C(=O)OC)[C@@H]2C1=O	-4.7	.	-2	.	i	11	-3	-4	4.3
COc1ccccc1NC(=O)c1ccc(Br)o1	1.7	0.72	7	3%	.	.	.	.	.

# Later entries.
# Below each compound – HNF4A DNA FP | E coli growth | ALR inh | Vif A3G | FGF22 binding | MLL AF4-AF9 inh | Ecoli rRNA inh | Ecoli rRNA inh OD600 | Ecoli rRNA inh RFP
Cc1ccccc1OC1C(=O)N(CC2CCCO2)C1c1ccc2c(c1)OCO2 (centres undefined)
  -2.8 | 0.7 | 16 | . | i | 2.3 | -22 | -26 | -1.8
COc1ccc(N2CCN(Cc3nc(N)nc(N4CCCc5ccccc54)n3)CC2)cc1
  -0.5 | 0.67 | 87* | 5% | . | . | . | . | .
CCS(=O)(=O)Nc1cccc(C2=NN(S(=O)(=O)c3ccccc3)C(c3cccs3)C2)c1 (centres undefined)
  11 | 0.69 | -20 | -1% | i | -0.8 | -13 | -6 | 1.1
COc1ccc(CN2CN(S(=O)(=O)c3cccs3)c3nc4ccccc4nc32)cc1
  3.6 | 0.71 | 1 | . | . | 4.4 | -42* | -33* | -10*
CO[C@H]1CN(C)C(=O)c2cc(NC(=O)c3ccno3)ccc2OC[C@H](C)N(S(C)(=O)=O)C[C@@H]1C
  . | . | . | . | i | -4.2 | 3 | 1 | 1.1
Cc1ccc(C)c(N2C(=O)CC(N3CCN(Cc4ccc5c(c4)OCO5)CC3)C2=O)c1 (centres undefined)
  0.9 | 0.67 | 2 | 2% | i | -60 | 7 | 5 | -2.6
CCN(CC(=O)Nc1ccccc1C(F)(F)F)C(=O)c1ccc(N2CCCC2=O)cc1
  2.4 | 0.67 | -5 | -1% | i | 0.4 | 5 | 4 | -2.3
NS(=O)(=O)c1cccc(NS(=O)(=O)c2ccc3ccccc3c2)c1
  1.8 | 0.69 | 2 | 3% | i | -2.1 | 2 | -8 | -0.2
CC(/C=C1\SC(=S)N(C(C(=O)O)C(C)C)C1=O)=C\c1ccccc1 (centres undefined)
  -4.3 | 0.67 | 13 | 9% | i | -0.2 | -49 | -74 | -13
CC1CCCCC12NC(=O)N(CC(=O)NC1CCCc3ccccc31)C2=O (centres undefined)
  -2.1 | 0.65 | 3 | 13% | i | -6.2 | 5 | -1 | -2.9
O=C(NO)c1ccccc1O
  3.2 | 0.68 | ? | 9% | i | -6.4 | 6 | 9 | 0.1
CCCCN(C(=O)CSc1nnc(-c2ccccc2)o1)c1c(N)n(CCC)c(=O)[nH]c1=O
  1.7 | 0.67 | 2 | . | i | -1.6 | 9 | 6 | 1.3
COCC(=O)N(C)C[C@H]1Oc2ncc(-c3ccccc3C)cc2C(=O)N([C@@H](C)CO)C[C@H]1C
  . | . | . | . | i | -3.1 | 8 | 10 | 1.4
CCOC(=O)c1cc(NC(=O)C2CCCO2)cc(C(=O)OCC)c1 (centres undefined)
  4.5 | 0.66 | -1 | 1% | . | . | . | . | .
CCOC(=O)c1sc(NC(=O)CSc2nc(C)cc(C)c2C#N)c(C#N)c1C
  3.6 | 0.77 | -1 | 0% | . | . | . | . | .
O=C(Cn1c(CO)nc2ccccc21)Nc1ccccc1Cl
  1.8 | . | -8 | 2% | i | -3.2 | -10 | -7 | -4.6
C[C@H]1CN([C@@H](C)CO)S(=O)(=O)c2ccc(C#CC3CCCC3)cc2O[C@@H]1CN(C)C
  . | . | . | . | i | 6.1 | 6 | -5 | 30
